Screens (PubChem)
Arbovirus inh = antivirals against arbovirus infection, primary screen, cell-based, full library, 10K replicate subset. arbovirus infection cell-based antiviral screen. inhibition, % at 10 µM. 200,000 compounds, 0.37% hits. AID 1251, 2008;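 active = inhibition from about 30%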;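 note: bluetongue infection of BSR cells; cell survival read as ATP light after 72 h; 0% = infected wells without compound and 100% = uninfected wells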
YopH PTP inh = YopH tyrosine phosphatase inhibitors, primary screen, biochemical, fluorescence Ex485/Em525; 140,000 compounds, 0.16% hits; AID 898, 2007; inhibition, %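 (about 10 µM by stock and volumes)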; YopH tyrosine phosphatase [Yersinia enterocolitica];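 active = inhibition of 50% or more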;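 note: controls were vehicle for no effect and minimum signal wells for full effect; inactives centre near -20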
RecA intein inh = Mtb RecA intein splicing inhibitors, primary screen, biochemical, fluorescence, HTS; Protein RecA (Mycobacterium tuberculosis (strain ATCC 25618 / H37Rv)), P9WHJ3; cell-free RecA intein splicing; inhibition, %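 (about 9 µM by stock and volumes)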; 290,000 compounds, 0.75% hits; AID 2221, 2009; in the data active = inhibition above about 30%; inconclusive = no clear call, values can overlap the other calls;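 note: 0% = vehicle wells and 100% = reference inhibitor control wells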
Target sequence (P9WHJ3 whole entry, looked up): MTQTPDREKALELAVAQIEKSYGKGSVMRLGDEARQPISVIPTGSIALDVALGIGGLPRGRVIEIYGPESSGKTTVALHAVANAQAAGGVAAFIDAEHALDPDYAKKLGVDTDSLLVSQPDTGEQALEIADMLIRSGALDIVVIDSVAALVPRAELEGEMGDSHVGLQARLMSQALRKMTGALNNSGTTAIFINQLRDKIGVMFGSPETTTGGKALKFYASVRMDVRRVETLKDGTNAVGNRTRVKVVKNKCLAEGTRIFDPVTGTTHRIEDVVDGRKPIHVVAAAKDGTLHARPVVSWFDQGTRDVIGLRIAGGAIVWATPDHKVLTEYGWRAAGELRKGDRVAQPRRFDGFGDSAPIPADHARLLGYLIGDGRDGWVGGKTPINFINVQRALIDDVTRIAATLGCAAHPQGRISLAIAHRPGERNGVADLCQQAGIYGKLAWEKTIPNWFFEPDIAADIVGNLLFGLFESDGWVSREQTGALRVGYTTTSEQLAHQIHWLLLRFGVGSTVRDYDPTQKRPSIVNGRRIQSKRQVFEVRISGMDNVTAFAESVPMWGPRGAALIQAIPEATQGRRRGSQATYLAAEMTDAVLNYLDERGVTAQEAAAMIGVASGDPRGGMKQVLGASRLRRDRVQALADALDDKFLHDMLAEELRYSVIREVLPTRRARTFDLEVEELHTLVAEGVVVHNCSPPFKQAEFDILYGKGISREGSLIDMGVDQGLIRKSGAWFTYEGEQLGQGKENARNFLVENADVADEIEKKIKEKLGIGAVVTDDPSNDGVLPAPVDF
Mtb H37Rv = M. tuberculosis H37Rv growth inhibitors, H37Rv strain (AID 1626); M. tuberculosis H37Rv growth inhibition; higher % means a stronger effect; inhibition, % at 10 µM; hits with a dose series show IC50 in µM; 220,000 compounds, 0.95% hits;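 active = confirmed in a dose series; inconclusive = inhibition above 80% but not taken into the dose series; inactive = below 80% or under 30% at every dose of the series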;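 note: bacteria incubated seven days before Alamar blue readout; 0% = bacteria only wells and 100% = bacteria with antibiotic wells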
Mtb betalactam = beta-lactam sensitization of Mtb H37Rv, H37Rv | M. tuberculosis H37Rv growth with meropenem, percent inhibition; hits of this screen are not shown here | inhibition, % at 25 µM | 330,000 compounds, 0.27% hits | AID 434955, 2010;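 active = about 74% or more and at least 40 points above the plate without the antibiotic, then above 30% in a dose series; inconclusive = first-round hits that could not be retested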;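 note: growth measured after seven days incubation then overnight dye step; 0% = bacteria only wells and 100% = bacteria with antibiotic; twin plates without the antibiotic show which effects depend on it; some results filed as inactive read as strong as hits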
Arbovirus inh repeat = further read-out of Arbovirus inh, marked with its call; inhibition, %; measured here: 10K subset replicate screen; many hits read low in the repeat;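 first of two repeat runs on a subset; 0% = infected and 100% = uninfected wells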
* = called active by the depositor; ? = inconclusive; . = not tested or not shown.

A first look:
SMILES | Arbovirus inh | YopH PTP inh | RecA intein inh | Mtb H37Rv | Mtb betalactam | others
CC1Cc2ccccc2N1S(=O)(=O)c1cccc(C(=O)c2nccn2C)c1 (stereo not given) | 1 | 2 | 4.0 | 3% | -2
Clc1cccc2sc(-c3nnc(-c4ccccc4)o3)c(Cl)c12 | . | -17 | 2.1 | -1% | -11
O=S(=O)(Nc1cc2nc3ccccc3nc2n1Cc1ccccc1)c1ccc(Cl)cc1 | -31 | -1 | 60* | 6% | -1
COC(=O)c1ccc(CN2CCC(Oc3cccc(C(=O)N4CCCC4)c3)CC2)cc1 | . | . | -0.4 | . | 5
Cc1ccc(NC(=O)c2cc(S(=O)(=O)N3CCC4(CC3)OCCO4)ccc2F)cc1 | 12 | -7 | 0.6 | -1% | -7

The whole of this part, previewed entries included:
SMILES | Arbovirus inh | YopH PTP inh | RecA intein inh | Mtb H37Rv | Mtb betalactam | others
CC1Cc2ccccc2N1S(=O)(=O)c1cccc(C(=O)c2nccn2C)c1 (stereo not given) | 1 | 2 | 4.0 | 3% | -2
Clc1cccc2sc(-c3nnc(-c4ccccc4)o3)c(Cl)c12 | . | -17 | 2.1 | -1% | -11
O=S(=O)(Nc1cc2nc3ccccc3nc2n1Cc1ccccc1)c1ccc(Cl)cc1 | -31 | -1 | 60* | 6% | -1
COC(=O)c1ccc(CN2CCC(Oc3cccc(C(=O)N4CCCC4)c3)CC2)cc1 | . | . | -0.4 | . | 5
Cc1ccc(NC(=O)c2cc(S(=O)(=O)N3CCC4(CC3)OCCO4)ccc2F)cc1 | 12 | -7 | 0.6 | -1% | -7
O=C(O)CNC(=O)c1ccc(Oc2c(F)c(F)c(Oc3ccc(C(=O)NCC(=O)O)cc3)c(F)c2F)cc1 | . | . | -1.8 | . | -3
Cn1c(=O)cc(OCCCC(=O)Nc2cccnc2)c2ccccc21 | -5 | -37 | 1.1 | -3% | -5
Cc1nn(-c2ccccc2)c2sc(C(=O)NC3CC3)cc12 | -9 | -5 | -8.9 | 3% | 5
CC1CCCN(S(=O)(=O)c2ccc(NC(=O)Cc3ccc(S(=O)(=O)N4CCOCC4)s3)cc2)C1 (stereo not given) | . | . | 1.8 | . | -9
COCCCNC(=O)c1ccccc1SC | -3 | -1 | -0.8 | 2% | -7
Cc1cc(N2CCC(C(=O)Nc3ccc(F)cc3)CC2)nc(-c2ccccc2)n1 | 2 | -44 | 11 | ? | 63
COCCC(=O)N1CCC(Oc2ccc(C(=O)N(C)Cc3cc(C)no3)cc2)CC1 | . | . | -2.2 | . | -8
O=C(NNc1nc2ccccc2s1)Nc1ccccc1 | -5 | -7 | 2.6 | 2% | 3
O=c1nc(C(F)(F)F)nc2ccccn12 | 4 | -28 | -0.5 | -6% | -5
COc1cccc(CNC(=O)c2ccccc2NC(=O)C2=C(C)OCCS2)c1OC | . | . | 1.6 | . | 0
CCOC(=O)Cc1ncccc1C(=O)Nc1ccc(OC)cc1 | 17 | . | 17 | -7% | -2
Cc1ccc(C(=O)N2N=C(c3ccccc3O)CC2c2ccccc2)cc1 (stereo not given) | . | . | -0.3 | . | 2
C=CCn1c(C)cc(C(=O)CN2C(=O)NC3(CCCc4ccccc43)C2=O)c1C (stereo not given) | -7 | -14 | -2.5 | 4% | -16
Cc1ccc(NC(=O)C2(S(=O)(=O)c3ccc(Cl)cc3)CC2)c(Br)c1 | . | . | 11 | . | 7
CCN(CC)S(=O)(=O)c1ccc(-n2c(=O)c(C(C)C)c(C)n2C)cc1 | -6 | . | -6.2 | 1% | -5
Cc1ccccc1NC(=O)Cc1nc(COC(=O)c2ccc(O)cc2O)cs1 | . | . | 2.8 | . | -13
O=C(COc1ncnc2cc([N+](=O)[O-])ccc12)NCc1ccc2c(c1)OCO2 | -13 | -16 | -5.3 | 1% | -5
CCOC(=O)C1=C(CP(=O)(c2ccccc2)c2ccccc2)NC(=O)NC1c1ccc(Cl)cc1 (stereo not given) | 1 | -21 | 1.0 | 2% | -6
COC(=O)C1=C(C(=O)c2ccc(C)cc2)C(c2ccc(O)c(OC)c2)n2nnnc2N1 (stereo not given) | 10 | -37 | -7.2 | -2% | 0
Cc1cccc(N2CCN(C(=O)c3cccs3)CC2)c1C | . | . | 6.9 | . | 0

Overlap with the part before: two entries, then new ones.
SMILES | Arbovirus inh | YopH PTP inh | RecA intein inh | Mtb H37Rv | Mtb betalactam | others
COC(=O)C1=C(C(=O)c2ccc(C)cc2)C(c2ccc(O)c(OC)c2)n2nnnc2N1 (stereo not given) | 10 | -37 | -7.2 | -2% | 0
Cc1cccc(N2CCN(C(=O)c3cccs3)CC2)c1C | . | . | 6.9 | . | 0
COc1ccc(NC(=O)Cn2nnc(-c3ccccc3F)n2)cc1 | 0 | 2 | 0.3 | -5% | -3
O=C(c1ccccn1)N1N=C2/C(=C/c3ccc(F)cc3)CCCC2C1c1ccc(F)cc1 (stereo not given) | -9 | -13 | -0.8 | 3% | 4
C/C(=N\NC(=O)c1cc(-c2ccc(C)s2)[nH]n1)c1ccncc1 | . | . | -1.9 | . | 2
CC(C)C1Oc2ccccc2N(CC(=O)N2CCOCC2)C1=O (stereo not given) | . | . | 0.4 | . | -5
CC(C)=NNc1cc([N+](=O)[O-])cc2c1C(=O)N(C)S2=O (stereo not given) | 2 | . | -3.5 | 7% | 0
COc1ccc(C2=NOC3(CC(=O)N(c4ccc(F)cc4)C3=O)C2)c(OC)c1 (stereo not given) | 5 | -9 | 0.1 | -2% | 0
COc1cc(NC(=O)c2cccc(C)c2)c(OC)cc1NC(=O)CN1CCCCC1 | -29 | . | 2.5 | 7% | 63
CC(=O)Nc1sc2c(c1CN1CCN(c3ccccn3)CC1)CCCC2 | 5 | -12 | 3.0 | 6% | 16
CCN(C(=O)COC(=O)c1cccc(-n2cnnn2)c1)C1CCCCC1 | 6 | . | 4.4 | 7% | -18
Cc1nn(Cc2ccc(C(=O)NC3CCCCC3)o2)c(C)c1Br | -2 | -25 | 4.1 | -13% | 11
CN(c1ccccc1)S(=O)(=O)c1cc(C(=O)N2CCN(c3ccccn3)CC2)ccc1Cl | 1 | -9 | 4.3 | -3% | -10
COC(=O)C(C)n1cnc2c(nnn2-c2cccc(Cl)c2)c1=O (stereo not given) | 2 | -49 | -5.2 | 4% | -6 | Arbovirus inh repeat=1
CC(C)(CO)CNC(=O)CCc1nnc(CCCc2ccccc2)o1 | 5 | . | . | 5% | -6
Fc1ccc(NC(=S)N/N=C/c2cccc(Br)c2)c(F)c1 | -3 | 4 | -0.4 | -3% | 9
Cc1cc(C)c2c(CC(=O)NC3CCS(=O)(=O)C3)coc2c1 (stereo not given) | . | . | 3.8 | . | -1
Cc1ccc(CC2S/C(=N/N=C/c3ccco3)NC2=O)cc1 (stereo not given) | -2 | . | -1.4 | 3% | -1
CC(C)N(C(=O)Cn1c(SCC(=O)Nc2nccs2)nc2ccccc21)C(C)C | -5 | -11 | -0.9 | 0% | 2
Cc1cc(Br)c(NC(=O)COC(=O)C2CC2C)c(Br)c1 (stereo not given) | 3 | 0 | 1.1 | 4% | 92
CCCCn1nc2cc(C(=O)NCC34CC5CC(CC(C5)C3)C4)ccc2c1OC | -28 | -21 | 5.5 | -9% | 74
Cc1ccc(S(=O)(=O)N(C)C)cc1NC(=O)COC(=O)c1c(-c2ccccc2)noc1C | . | . | 1.0 | . | -12
CCC(=O)c1c[nH]c(C(=O)NCc2cccnc2)c1 | 2 | . | -0.9 | 4% | 8
CC(=O)Nc1ccc(S(=O)(=O)NC(CC(=O)O)c2ccc(C)cc2)cc1 (stereo not given) | . | . | 2.2 | -11% | -6
O=C(O)CC1Sc2ccccc2NC1=O (stereo not given) | 10 | -37 | 0.5 | 0% | -3 | Arbovirus inh repeat=4
CCOC(=O)Cc1csc(NC(=O)c2cc3ccccc3o2)n1 | 8 | . | 2.2 | 8% | -3
CCOC(=O)C1CCCN(Cc2ccc3c(c2)OCO3)C1 (stereo not given) | 7 | -27 | -0.9 | -12% | 2
Other structures.
SMILES | Arbovirus inh | YopH PTP inh | RecA intein inh | Mtb H37Rv | Mtb betalactam | others
Nc1ccc(C2(c3ccc(N)cc3)CN3CCC2CC3)cc1 | -5 | 0 | -1.2 | 3% | 6
CCSc1nnc(NC(=O)CSc2nnc(Cc3cccn3C)n2-c2ccc(C)cc2)s1 | 15 | -28 | -0.4 | -4% | 2
O=C(NCc1ccco1)c1ccc(Cn2c(=O)c3ccccc3n(Cc3cccc(F)c3)c2=O)cc1 | 0 | -25 | -1.9 | -2% | 1
Cc1cccc2cc(CN(Cc3ccc(F)cc3)C(=O)N3CCOCC3)c3nnnn3c12 | -5 | 13 | 2.3 | 7% | 1
Cn1nc(C(F)(F)F)cc1C(=O)Nc1ccc(Cl)cc1 | . | . | 2.9 | 2% | -6
C=CCn1c(O)c(C(CC)=NCCN2CCOCC2)c(=O)[nH]c1=O | -1 | -30 | 2.4 | -7% | 1
CN1CCN(c2nc(-c3ccccc3Cl)nc3ccccc23)CC1 | . | . | 1.4 | . | -5
O=C(NNc1c2ccccc2nc2ccccc12)c1ccc(Cl)cc1 | . | . | -4.6 | . | 9
Cc1ccc(S(=O)(=O)Cc2ccc(C(=O)N3CCCCC3C)cc2)cc1 (stereo not given) | . | . | 1.3 | . | -8
Cc1cc2c(cc1C)NC(c1cccnc1)C1=C(CC(C)(C)CC1=O)N2 (stereo not given) | -3 | -25 | -5.6 | 0% | -6
CN(C)CCN(CC1CCCN(Cc2ccccc2F)C1)C(=O)c1ccc(Cl)cc1 (stereo not given) | . | . | -0.3 | . | -6
Cc1ccc2oc(C(=O)N3CCC(C(N)=O)(N4CCCCC4)CC3)c(C)c2c1 | . | . | -0.5 | . | 2
Fc1ccc(N2CCN(C(=S)NCC3CCCO3)CC2)cc1 (stereo not given) | 3 | . | 1.7 | -11% | -8
Cc1ccc(CNS(=O)(=O)c2c(C)[nH]c(C)c2C(=O)N2CCCC2)cc1 | . | . | 1.4 | . | 1
Cc1ccc(/C=C2\C(=O)NC(=O)N2C)o1 | . | . | 2.6 | . | 5
CN(c1ccccc1)S(=O)(=O)c1ccc(NC(=O)c2ccc(-c3ccccc3)cc2)cc1 | -41 | -56 | 1.0 | 21% | 83
CC1=NN(C(=O)Cc2ccccc2)C(O)(c2cccnc2)C1 (stereo not given) | 12 | -26 | -1.1 | 7% | -11
CC(=O)c1cccc(NC(=O)C(NC(C)C)c2ccccc2)c1 (stereo not given) | 0 | . | 2.3 | 4% | -2
N#Cc1ccc(OCC(O)CN2CCN(CC(O)COc3ccc(C#N)cc3)CC2)cc1 (stereo not given) | . | . | -1.0 | . | -7
CCOC(=O)CNC(=O)/C=C/c1ccc2c(c1)OCO2 | 4 | . | -1.3 | -1% | -7
CSc1ncccc1C(=O)OCc1cccc([N+](=O)[O-])c1 | 1 | . | 0.2 | -3% | 2

Five compounds out of the list, arranged by length of the SMILES, lowest first.
SMILES | Arbovirus inh | YopH PTP inh | RecA intein inh | Mtb H37Rv | Mtb betalactam | others
Fc1ccc(N2CCN(C(=S)NCC3CCCO3)CC2)cc1 (stereo not given) | 3 | . | 1.7 | -11% | -8
O=C(NNc1c2ccccc2nc2ccccc12)c1ccc(Cl)cc1 | . | . | -4.6 | . | 9
CN(C)CCN(CC1CCCN(Cc2ccccc2F)C1)C(=O)c1ccc(Cl)cc1 (stereo not given) | . | . | -0.3 | . | -6
CCSc1nnc(NC(=O)CSc2nnc(Cc3cccn3C)n2-c2ccc(C)cc2)s1 | 15 | -28 | -0.4 | -4% | 2
Cc1cccc2cc(CN(Cc3ccc(F)cc3)C(=O)N3CCOCC3)c3nnnn3c12 | -5 | 13 | 2.3 | 7% | 1

Some of the compounds tested; the hit share may differ from the screen's.
